Source: PubChem BioAssay
gsp ag = gsp mutant agonism; 0.13% of 340,000 active; Potency, µM (titrated, usually from 76.9 µM), inactives show top-dose activation (cAMP increase), hits mostly activators; gsp mutant cells, cAMP HTRF, 30 min; control for the full effect not named in the record; active = well fitted activation curve with a large enough effect; inconclusive = small, poorly fitted or top-dose-only effect, or another doubt; inactive = no such curve, though single readings can be large or run the other way; cell line not stated here;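 also: phosphodiesterase inhibitor Ro 20-1724 added with compounds to block cAMP breakdown; potency is read from the fitted curve at half-maximal effect; nearly all actives have a fitted effect of over 60% in size; about a fifth of the inactives were tested at one dose only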
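Cells in DMEM/10% FBS with G418 were pretreated with compounds in DMSO plus […] (300 uM stock) for 30 min at 37C. cAMP was measured by HTRF (cAMP-d2 plus anti-cAMP antibody-K) after 30 min at room temperature.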
gsp antag = gsp mutant antagonism. Potency, µM (titrated, usually from 76.9 µM), for the others: top-dose activity change, negative = inhibition, usual class: inhibitors. gsp-mutant cells, cAMP HTRF, 30 min; control for the full effect not named in the record. 0.4% of 340,000 active; active = falling curve of any shape with a large fitted effect; inconclusive = falling curve, mostly with a smaller effect; inactive = flat or rising curve; cell line not stated here;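 also: intracellular cAMP measured with PDE inhibitor Ro 20-1724 present during compound exposure; potency is read from the fitted curve at half-maximal effect; % is scaled to controls: 0 for no effect and ±100 for the full control effect; nearly all actives have a fitted effect of over 65% in size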
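G418-selected cells were plated in DMEM/10% FBS for 16-24 h at 37C, then treated with compounds plus the PDE inhibitor […] (300 uM solution added) for 30 min at 37C. Intracellular cAMP was measured by HTRF after 30 min lysis at room temperature.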
CtBP-E1A inh = blocks the CtBP interaction with E1A | AlphaScreen GST-E1A/His-CtBP binding, 1536-well; active compounds read low; control for the full effect not named in the record | activity change, % (no concentration beside the values) | 0.49% of 340,000 active | AID 651724; in the data active means activity change below about -65%; inconclusive means about -30% to -65%; inactive means above about -30%; also: % is scaled to controls: 0 for no effect and ±100 for the full control effect
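In 5 uL wells, 23 nL compound meets equimolar GST-E1A and His-CtBP (5X stock 125 nM each) for 2 h, 37 °C. Beads (5X, 50 ug/mL) then 1 h, 37 °C, dark.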
D2 PAM = positive allosteric modulators of human D2 dopamine receptor; potentiation, % (concentration not given with the values); 0.23% of 360,000 active; DiscoveRx D2 beta-arrestin cells, luminescence, 90 min; 100% = 57 uM dopamine signal; active = potentiation of 50% or more; inconclusive = 30% to 50%; inactive = 30% or less;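 also: compound concentration not given in the record; tested on top of an EC20 dose of dopamine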
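PathHunter beta-arrestin assay in DiscoveRx D2 cells. Compounds were added with an EC20 of dopamine (50 nM final) for 90 min at 37 deg C. Luminescence was read 1 h after detection reagent, with 57 uM dopamine as the EC100 control.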
D2 ag = agonists of human D2 dopamine receptor (beta-arrestin). DiscoveRx PathHunter D2 beta-arrestin, luminescence, 90 min; 100% = 57 uM dopamine signal. 0.084% of 360,000 active. activation, % (concentration not given with the values). P14416; in the data active = activation above about 40%; inconclusive = about 15% to 40%; inactive = below about 15%; also: compound concentration not given in the record; the text of the record calls up to 30% inactive
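Agonist mode: compounds alone added to overnight-plated D2 PathHunter cells for 90 min at 37 C, with 57 uM final dopamine (EC100) defining full response. Beta-arrestin recruitment detected by chemiluminescent reagent, read after 1 h at ambient temperature.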
Six1-Eya2 inh = Six1/Eya2 interaction inhibition; AlphaScreen GST-Six1/His-Eya2 binding, biochemical; active compounds read low; control for the full effect not named in the record; activity change, % (concentration not given with the values); 0.56% of 360,000 active; AID 651725; in the data active = activity change below about -65%; inconclusive = about -30% to -65%; inactive = above about -30%; also: % is scaled to controls: 0 for no effect and ±100 for the full control effect
Target sequence (O00167 whole entry, looked up): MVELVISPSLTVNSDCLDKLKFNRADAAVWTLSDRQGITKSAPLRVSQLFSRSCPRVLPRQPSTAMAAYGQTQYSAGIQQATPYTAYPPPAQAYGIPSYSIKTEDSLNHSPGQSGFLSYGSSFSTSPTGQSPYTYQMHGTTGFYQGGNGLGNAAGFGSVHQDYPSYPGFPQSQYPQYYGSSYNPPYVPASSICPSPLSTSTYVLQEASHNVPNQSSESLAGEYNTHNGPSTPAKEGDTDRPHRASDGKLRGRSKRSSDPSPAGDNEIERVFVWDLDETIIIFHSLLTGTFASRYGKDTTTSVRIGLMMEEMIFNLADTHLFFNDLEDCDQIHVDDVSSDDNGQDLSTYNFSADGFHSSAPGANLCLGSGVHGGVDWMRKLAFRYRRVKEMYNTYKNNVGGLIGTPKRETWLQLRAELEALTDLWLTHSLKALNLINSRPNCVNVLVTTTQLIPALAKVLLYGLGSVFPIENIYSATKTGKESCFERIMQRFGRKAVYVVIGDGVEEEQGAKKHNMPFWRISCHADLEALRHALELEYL
Target sequence (Q15475 whole entry, looked up): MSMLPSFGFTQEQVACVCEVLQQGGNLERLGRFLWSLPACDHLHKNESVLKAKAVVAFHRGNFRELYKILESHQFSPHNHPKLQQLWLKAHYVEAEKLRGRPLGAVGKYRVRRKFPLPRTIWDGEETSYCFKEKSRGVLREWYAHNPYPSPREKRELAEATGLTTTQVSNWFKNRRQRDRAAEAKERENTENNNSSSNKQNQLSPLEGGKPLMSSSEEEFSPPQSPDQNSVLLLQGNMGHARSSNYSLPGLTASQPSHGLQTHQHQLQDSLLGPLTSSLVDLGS
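GST-Six1 + His-Eya2 (5X stock: 250/500 nM); Tris pH 8.0, 300 mM NaCl, 0.05% BSA, 0.02% Tween 20; GSH donor/Ni acceptor beads; 1 h 37 °C dark; AlphaScreen readout.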
* marks the source's active call; other numbers are inactive results; ? = inconclusive; . = not tested or not shown; [ ] = remark or other dose. No enrichment for hits; any-hit rate near 1.4%.

SMILES | gsp ag | gsp antag | CtBP-E1A inh | D2 PAM | D2 ag | Six1-Eya2 inh
C[C@@H]1CN([C@H](C)CO)C(=O)CCCn2nncc2CO[C@H]1CN(C)C | 2% | . | 4 | -2 | -9.4 | 5
CN(C)S(=O)(=O)c1ccc(N2CCOCC2)c(C(=O)NCc2ccc3c(c2)OCO3)c1 | 4% | -6% | . | -9 | 1.8 | 6
CC(C)c1ccc(C2NC(=O)c3ccccc3O2)cc1 (configuration not stated) | -35% | 9% | 5 | -2 | -0.7 | 3
COC(=O)c1ccccc1NC(=O)CSc1nccc(C)n1 | 10% | 3% | -12 | -5 | -0.2 | -8
COc1ccc(NS(=O)(=O)c2cccc(C(=O)NCC(c3ccccc3OC)N3CCCC3)c2)cc1 (configuration not stated) | -4% | 0% | -2 | -15 | -1.5 | -2
Cc1nn2c(N3CCN(C(=O)c4ccco4)CC3)cc(C(C)(C)C)nc2c1-c1ccccc1 | 2% | 1% | 3 | -3 | -1.5 | 10
Cc1cccc(Nc2nc(N)c([N+](=O)[O-])c(N3CCN(C)CC3)n2)c1 | 8%[15.4 µM] | -12% | -1 | -35 | -4.7 | -18
COc1cccc(C2SCC(=O)N2c2cccc(C)c2)c1OC (configuration not stated) | 4%[15.4 µM] | 1% | -2 | -6 | 1.3 | -9
CC1OC(=O)c2cc3ccccc3nc21 (configuration not stated) | ? | . | 4 | -4 | -4.1 | -12
CCCN(CCC)Cc1cc(=O)oc2cc(C)ccc12 | . | . | 15 | -6 | 4.5 | 4
S=C(NCCc1ccccc1)N1CCC2CC1c1cc(-c3ccc4c(c3)OCO4)ccc12 (configuration not stated) | . | . | -10 | 0 | -2.7 | -13
COc1ccc(F)cc1C(=O)C1CCCN(Cc2cn(C)c3ccccc23)C1 (configuration not stated) | -42%[inhibitor] | 6% | -21 | -16 | -2.1 | -14
CCN(CC)C1CCN(C(=O)c2ccc(OC3CCN(Cc4ccccn4)CC3)cc2)C1 (configuration not stated) | ? | 10% | 0 | -19 | -2.7 | -1
COCCN(C)Cc1cn(-c2ccc(F)cc2F)nc1-c1ccccc1C | -17%[15.4 µM] | 13% | . | -12 | 1.8 | -20
COc1ccc(N2CCN(C(=O)c3ccc(C)cc3)CC2)c([N+](=O)[O-])c1 | -47%[inhibitor] | -14% | -14 | -14 | -0.3 | -12
COc1cc2c(cc1OC)C1=C(C#N)CC/C(=N\S(=O)(=O)c3ccccc3)N1CC2 | -24% | 14% | -6 | 4 | 5.4 | -10
CC(C)NC(=O)N(C)C[C@H]1Oc2c(NC(=O)Nc3ccc4c(c3)OCO4)cccc2C(=O)N([C@H](C)CO)C[C@@H]1C | . | -1% | 4 | -3 | -2.7 | -1
CC(C)C[C@H](NC(=O)OC(C)(C)C)c1nnc(SCc2cccc(F)c2)o1 | -1% | 5% | 10 | -14 | -2.0 | 24
COc1ccc(CN(CC(=O)NC2CCCCC2)C(=O)CCCC(=O)Nc2ccccn2)cc1 | -18% | 3% | . | 2 | -3.4 | 0
COC(=O)C(C)Sc1ccc2nnc(CCNS(=O)(=O)c3ccc(C)cc3)n2n1 (configuration not stated) | -17% | -16% | . | -9 | -2.5 | 4

Another view of part of the listing above:
COc1ccc(F)cc1C(=O)C1CCCN(Cc2cn(C)c3ccccc23)C1 (configuration not stated)
  gsp ag: -42%[inhibitor] | gsp antag: 6% | CtBP-E1A inh: -21 | D2 PAM: -16 | D2 ag: -2.1 | Six1-Eya2 inh: -14
CCN(CC)C1CCN(C(=O)c2ccc(OC3CCN(Cc4ccccn4)CC3)cc2)C1 (configuration not stated)
  gsp ag: ? | gsp antag: 10% | CtBP-E1A inh: 0 | D2 PAM: -19 | D2 ag: -2.7 | Six1-Eya2 inh: -1
COCCN(C)Cc1cn(-c2ccc(F)cc2F)nc1-c1ccccc1C
  gsp ag: -17%[15.4 µM] | gsp antag: 13% | CtBP-E1A inh: . | D2 PAM: -12 | D2 ag: 1.8 | Six1-Eya2 inh: -20
COc1ccc(N2CCN(C(=O)c3ccc(C)cc3)CC2)c([N+](=O)[O-])c1
  gsp ag: -47%[inhibitor] | gsp antag: -14% | CtBP-E1A inh: -14 | D2 PAM: -14 | D2 ag: -0.3 | Six1-Eya2 inh: -12

(continued)
SMILES | gsp ag | gsp antag | CtBP-E1A inh | D2 PAM | D2 ag | Six1-Eya2 inh
COC(=O)c1ccc(/C=N/Nc2nc3ccccc3[nH]2)cc1 | 1% | -4% | 2 | -1 | -2.3 | 5
CCOc1ccc(NC(=O)C[n+]2ccc(N(C)C)cc2)cc1 | -21% | 4% | 3 | -21 | -0.9 | 2
CCOc1ccc(C(C)NC(=O)c2ccccc2F)cc1 (configuration not stated) | -4% | -4% | 2 | -9 | 1.1 | 11
Cc1cccc(NCc2ccccc2OCc2ccccc2F)c1 | -24% | -8% | 17 | -13 | 0.4 | -1
Cc1noc(C)c1C(=O)N1CCC1(C)C(=O)NS(=O)(=O)c1cccc(OC(F)F)c1 (configuration not stated) | . | . | -2 | -4 | -4.1 | 6
Cc1ccc(NC(=O)NC(=O)N(c2ccccc2)S(C)(=O)=O)cc1 | -12% | -11% | 7 | -14 | -4.9 | 3
CCN1CCN(c2ccc(S(=O)(=O)N3CCCCC3)cc2NC(=O)/C=C/c2ccc(Cl)cc2)CC1 | -33%[inhibitor] | 5% | 0 | 8 | -3.1 | -21
O=c1[nH]c(=S)c2[nH]c(=S)n(-c3ccccc3)c2[nH]1 | ? | 2% | -4 | -25 | -5.9 | -2
C=CCCC(=O)Nc1nc(C)c(-c2csc(Nc3cc(OC)ccc3OC)n2)s1 | 23% | -2% | . | -12 | -3.8 | -5
CC(=O)NC1C(O)OC(CO)C(O)C1O (configuration not stated) | . | 3% | 7 | 6 | -3.0 | 0
O=C(O)c1ccc(NS(=O)(=O)c2ccc(C(=O)Nc3ccccc3)cc2)cc1 | -6% | 4% | 13 | -12 | -7.6 | -1
Cc1ccc2cc3c(NC(=O)c4ccco4)nn(CC(C)C)c3nc2c1 | 0% | -15% | 11 | 12 | 0.4 | 15
Cc1ccc(S(=O)(=O)c2c(N)n(CCCN(C)C)c3nc4ccccc4nc23)cc1 | 4% | 3% | . | -28 | -6.3 | 1
COc1ccc(NC(=O)CN(c2ccc(C)cc2)S(=O)(=O)c2c(C)nn(C)c2C)cc1 | 0% | 1% | -3 | -3 | 1.0 | 4
COc1ccc(NS(=O)(=O)c2cc(NC(=O)c3ccccc3)ccc2N2CCOCC2)cc1 | 8% | -5% | -12 | -7 | -2.8 | -10
COc1ccc(NC(=O)c2cccc([N+](=O)[O-])c2)cc1 | 11%[15.4 µM] | 5% | -5 | -17 | -0.9 | 5
CCOc1ccc(NC(=O)NCc2ccccn2)cc1 | ? | 13% | 7 | -1 | -0.4 | 0
CN(Cc1cccc(F)c1)C(=O)C(c1ccccc1)c1ccccc1 | -5% | 2% | 18 | -14 | -0.4 | 6
O=C(C(=O)N1CC=C(c2ccccc2)CC1)c1c[nH]c2ccccc12 | -12% | -6% | 3 | 3 | 1.9 | -6
CN(CC(=O)Nc1ccc(F)c(F)c1F)C(=O)/C=C/c1ccco1 | ? | 2% | -13 | -5 | 8.7 | -13

Next part (2 carried over from the part before).
SMILES | gsp ag | gsp antag | CtBP-E1A inh | D2 PAM | D2 ag | Six1-Eya2 inh
O=C(C(=O)N1CC=C(c2ccccc2)CC1)c1c[nH]c2ccccc12 | -12% | -6% | 3 | 3 | 1.9 | -6
CN(CC(=O)Nc1ccc(F)c(F)c1F)C(=O)/C=C/c1ccco1 | ? | 2% | -13 | -5 | 8.7 | -13
COCCCNC(=O)c1ccc2c(c1)CCN2S(C)(=O)=O | 2% | -1% | -2 | 4 | -4.3 | 2
COc1ccc(Cl)cc1NC(=O)C(C)Sc1nnc(C2CC2)n1C1CC1 (configuration not stated) | 6% | -4% | -1 | -10 | -1.9 | -4
CC(=O)Nc1ccc(C2=NN(c3ccccc3)C(c3cccs3)C2)cc1 (configuration not stated) | 9%[15.4 µM] | 4% | 13 | -3 | -2.0 | 28
CCN(CC)C(=O)c1sc(NC(=O)c2cccs2)c(C#N)c1C | 3% | -3% | -1 | -3 | 2.5 | 0
COC(=O)c1cc(-c2c(C)oc3cc(OC)ccc3c2=O)c(C)o1 | 13% | -21% | 37 | -2 | 1.0 | 18
COc1ccc(CCNC(=O)CCCCCn2c(SCC(N)=O)nc3cc4c(cc3c2=O)OCO4)cc1OC | 10%[15.4 µM] | 2% | 5 | 5 | -8.2 | 1
COc1ccccc1N(CC(=O)N(C)Cc1ccccc1)S(=O)(=O)c1cccs1 | -38%[inhibitor] | -3% | 0 | -1 | 0.2 | -7
O=C(CC1C(=O)NCCN1CC1CCCCC1)NCc1ccccc1Cl (configuration not stated) | 17%[15.4 µM] | 9% | -5 | 4 | -4.9 | 11
Cc1[nH]nc2c1C(c1ccc(O)cc1)C1=C(CC(C)(C)CC1=O)N2 (configuration not stated) | 12% | 14% | 0 | -7 | -2.1 | 0
COc1ccc(C2(c3ccc(OC)cc3)NC(=O)N(CC(=O)Nc3ccccc3)C2=O)cc1 | -40% | -6% | -1 | 0 | 6.8 | -4
Cc1occc1C(=O)N1CCCC(CO)(Cc2ccc(F)cc2F)C1 (configuration not stated) | ? | 1% | -1 | -20 | -2.9 | 1
CC1CCCN(c2nc3c(c(=O)[nH]c(=O)n3C)n2CCSc2nc3ccccc3o2)C1 (configuration not stated) | -72%[inhibitor] | 0% | -7 | -3 | -2.6 | -8
CCCNS(=O)(=O)c1ccc(OCC(=O)N2CCOCC2)cc1 | 14% | 4% | -2 | -8 | -4.4 | 0
COc1ccc(C(=O)CN2CCN(c3ccc(F)cc3)CC2)cc1 | 28% | 3% | . | -8 | 1.9 | 0
COc1ccc(C(=O)CC(=O)C(=O)Nc2ccc(C)c(Cl)c2)cc1 | 15% | 15% | 3 | -1 | -3.3 | -1
COc1ccc(S(=O)(=O)NC(C)C(=O)NCc2ccncc2)cc1OC (configuration not stated) | 11%[15.4 µM] | -4% | 28 | -9 | -4.4 | 11
